AID504770: growth inhibition of E. coli YBA685, primary screen, V. cholerae RctB inhibitors | E. coli YBA685 rctB-dependent plasmid, OD600 growth, 3 h; stronger effect = lower value | z-score (concentration not given with the values) | 0.27% of 130,000 active | AID 504770, 2011;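 active = z-score under -2 on both plates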;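 also: wells of about 30 µL received 100 nL stock; score is relative to mean and SD of the test wells; the first replicate is given; strong numbers were not always called active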
CapD inh: Bacillus anthracis CapD inhibitors, primary screen, biochemical, fluorescence intensity; purified CapD enzyme, fluorescence intensity read-out; stronger effect = lower value; some hits fall short of the stated cut; z-score (test concentration not listed); 0.23% of 140,000 active; AID 492967, 2010;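 active = z-score under -4 in either of two replicates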;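 also: stock transfer was 100 nL into about 40 µL; score is relative to mean and spread of the plate; one replicate is shown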
An asterisk follows results filed as active; x = no result given. These rows are one share of the data; rates above refer to the full screens.

| Structure | AID504770 | CapD inh |
| --- | --- | --- |
| Cn1nc(C(N)=O)c2ccccc2c1=O | 0.75 | x |
| CC(C)n1c(C(F)(F)F)nc2cc(C(=O)O)ccc21 | x | 0.2 |
| O=C(CC(C(=O)O)C1CCCO1)Nc1ccc(F)cc1 (centres undefined) | 0.65 | x |
| O=C(/C=C/c1ccco1)N1CCN(C(c2ccccc2)c2ccccc2)CC1 | 0 | 0.16 |
| CN1CCc2c(c(N3CCCCC3)nc3n[nH]c(N)c23)C1 | -0.95 | -0.69 |
| Cc1ccccc1/C=N/N1C(=O)c2ccc3c4c(ccc(c24)C1=O)CC3 | 1.8 | 18 |
| COc1cc(Cn2cnc3c(cnn3CCO)c2=O)cc(OC)c1 | 0.6 | x |
| COc1cc(N)c(Cl)cc1C(=O)OCC(=O)Nc1ccc(N2CCOCC2)cc1 | 1.4 | x |
| CC1(C)CC(=O)C2=C(C1)N(c1sc3c(c1C#N)CCCC3)C(N)=C(C#N)C2c1cccnc1 (centres undefined) | x | -1.5 |
| CCCc1nc2ccccc2c2c1C(=O)N(NC(=O)c1cc(S(=O)(=O)C(C)C)c(SC)s1)C2=O | x | 2.7 |
| CCCC(CCC)c1nc2ccncc2[nH]1 | -1.1 | 0.07 |
| CC(C)c1c(C#N)c(N)nc2sc(C(=O)c3ccc(Cl)cc3)c(N)c12 | x | -1.2 |
| COc1cc(Br)c(CN2CCCC(COC(=O)NNC(=O)c3scc(C)c3-n3cccc3)C2)cc1OC (centres undefined) | x | -1.1 |
| C=CCn1c(C)cc(C(=O)COn2nnc3ccc(Cl)cc32)c1C | -1.7 | x |
| CCC(CC)c1nc(C(N)=O)c2[nH]c(=O)n(-c3ccc(OC)c(OC)c3)c2n1 | -0.2 | x |
| Cc1ccc(Cl)cc1NC(=O)COC(=O)c1ccc(Br)o1 | -0.5 | -0.55 |
| CCCc1nc2sc3c(NCCO)ncnc3c2c2c1COC(C)(C)C2 | x | 5.9 |
| Cn1nc(C(=O)NC2CCCCCC2)ccc1=O | 0.2 | x |
| Oc1c(C(c2ccc(C(F)(F)F)cc2)N2CCCC2)ccc2cccnc12 (centres undefined) | -0.75 | x |
| COc1c(C(=O)NC(CCCCNC(=O)OCc2ccccc2)C(=O)OCc2ccccc2)cnc2c1c(C)nn2C (centres undefined) | x | 0.89 |
| Cc1ccc2cc(CNCC(C)O)c(=O)[nH]c2c1C (centres undefined) | 0.2 | 14 |
| Cc1ccc(NS(=O)(=O)c2cccc(C(=O)OC3CCOC3=O)c2)cc1 (centres undefined) | -0.8 | x |
| CC(CC(=O)Nc1ccccc1)n1cccn1 (centres undefined) | 0.6 | -0.23 |
| Cc1ccc(S(=O)(=O)CC(=O)Nc2ccc(N3CCOCC3)cc2)cc1 | x | -0.31 |
| Clc1ccc2cn[nH]c2c1 | -0.6 | 0.38 |
| COc1cc(O)c(/C=N/NC(=O)c2c(F)cccc2F)c(OC)c1 | x | -0.3 |
| O=C(O)COCC1COc2ccccc2O1 (centres undefined) | 0.65 | x |
| O=C(Nc1ccc(Cl)cc1)C1CC(=O)N(CCc2ccc(Cl)cc2)C1 (centres undefined) | -0.25 | -0.005 |
| CN(C)c1nc(N(C)C)nc(N(C)C#N)n1 | 0.75 | 0.43 |
| COCCn1nnnc1C(CC(C)C)N1CCN(c2cc(Cl)ccc2C)CC1 (centres undefined) | 0.2 | x |

Whole records, looked up by structure. Screens in order: AID504770, CapD inh
Record of Cc1ccc(S(=O)(=O)CC(=O)Nc2ccc(N3CCOCC3)cc2)cc1 : x, -0.31
Record of COCCn1nnnc1C(CC(C)C)N1CCN(c2cc(Cl)ccc2C)CC1 (centres undefined) : 0.2, x
Record of O=C(O)COCC1COc2ccccc2O1 (centres undefined) : 0.65, x

(listing goes on)
| Structure | AID504770 | CapD inh |
| --- | --- | --- |
| COc1ccc2c(c1)cc1n2CCN=C1NN | -0.5 | 2.1 |
| CCN(CC)CCn1c(NC(=O)COc2c(F)c(F)cc(F)c2F)nc2ccccc21 | x | -0.15 |
| CCOc1cccc(/C=N/NC(=O)c2cc(Br)ccc2Cl)c1O | x | -0.43 |
| O=C(NNC(=O)C1CCN(Cc2cccc(F)c2)CC1)c1cccc(Cl)c1 | x | -0.54 |
| Cc1noc(C)c1C(=O)N1CCN(C(=O)c2sc3cc(Cl)ccc3c2Cl)CC1 | -0.75 | 0.27 |
| O=C1CC(NC2CC2)C(=O)N1c1ccccc1 (centres undefined) | -0.5 | x |
| C=CCC1Cc2ccccc2C(C)N1 (centres undefined) | 0.6 | 0.26 |
| Cc1oc(-c2ccc(C(=O)N3CCCC3)cc2)nc1CS(=O)(=O)c1ccccc1 | 0.4 | 0.47 |
| CN(C)S(=O)(=O)c1cccc(COC(=O)c2nn(C)c(=O)c3ccccc23)c1 | 2.2 | x |
| COc1ccccc1C(=O)NC(C)C(c1cccs1)N1CCN(C)CC1 (centres undefined) | 2 | -1.2 |
| COc1ccc(CCCc2n[nH]c(=S)o2)cc1 | -0.85 | -0.41 |
| O=C(O)CSc1ccc(Oc2ccc(SCC(=O)O)cc2)cc1 | 0.65 | x |
| CCc1ccc(NC2CC(=O)N(c3ccccc3)C2=O)cc1 (centres undefined) | 1.1 | 0.1 |
| CCOc1ccc(-n2c(-c3ccc(OC)cc3)c[n+]3c2CCCCC3)cc1 | 0.05 | -0.44 |
| CCn1c(C)nc2cc(S(N)(=O)=O)ccc21 | -0.2 | 0.49 |
| CC(C)C1Cc2c(sc3c2c(=O)n(CCc2ccccc2)c2n[nH]c(=S)n32)CO1 (centres undefined) | -0.15 | 0.095 |
| CCC(C)C(C(=O)Nc1ccc(N2CCOCC2)cc1N1CCOCC1)c1ccccc1 (centres undefined) | -0.55 | x |
| O=C(NC(=S)Nc1ccc(-c2nc3ccccc3o2)cc1)c1ccc(F)cc1 | 1.6 | -0.79 |
| O=C(CN1C(=O)/C(=C2\SC(N3CCOCC3)=NC2=O)c2ccccc21)Nc1cccc(Br)c1 | x | 0.24 |
| O=C1Nc2ccc(Br)cc2C(c2ccc(Cl)cc2)=NC1O (centres undefined) | x | -0.53 |
| Cc1cc(NCC(c2ccccc2)N(C)C)nc2ccccc12 (centres undefined) | -0.85 | x |
| COc1ccc(CCNC(=O)c2ccc3nc(N4CCOCC4)sc3c2)cc1OC | -0.4 | -0.61 |
| CC(C)c1ccc(NC(=O)CSc2ncn[nH]2)cc1 | -0.4 | -0.29 |
| COc1ccc(CN2C(=O)CNC2=O)cc1 | -0.1 | 0.14 |
| NC(=O)CSc1n[nH]c(COc2ccc(Cl)cc2)n1 | -0.95 | x |
| O=C(O)c1ccc(CNCCc2ccccc2)s1 | 0.95 | -0.9 |
| CCC(=O)Nc1c(C)n[nH]c1C | 0 | x |
| COc1ccc(C2CC(=O)C3=C(C2)Nc2ccccc2N(C(C)=O)C3c2ccc(OC)c(OC)c2)cc1 (centres undefined) | x | 1.3 |
| O=C(Cn1c(COc2ccccc2)nc2ccccc21)NC1=NCCS1 | -0.2 | x |
| O=C(OCc1ccccc1)N1CCc2ccccc21 | -0.7 | 0.005 |

Entries from the list above with a CF3 group, in the order listed:
| Structure | AID504770 | CapD inh |
| --- | --- | --- |
| CC(C)n1c(C(F)(F)F)nc2cc(C(=O)O)ccc21 | x | 0.2 |
| Oc1c(C(c2ccc(C(F)(F)F)cc2)N2CCCC2)ccc2cccnc12 (centres undefined) | -0.75 | x |

Next part.
| Structure | AID504770 | CapD inh |
| --- | --- | --- |
| O=S(=O)(Nc1nc2ccccc2nc1Nc1ccc2nsnc2c1)c1ccccc1 | -0.35 | x |
| COc1ccc(-c2cc(-c3ccccc3)n[nH]2)cc1 | -1 | 0.66 |
| CC(OC(=O)c1ncc(Cl)c(Cl)c1Cl)C(=O)N1CCOCC1 (centres undefined) | 0.05 | x |
| O=C(c1cc2ccccc2o1)N1CCCC(c2nc3ccccc3s2)C1 (centres undefined) | 0.45 | x |
| COc1cc(C(=O)OCC(=O)N(C)C2CCS(=O)(=O)C2)ccc1OCc1c(C)noc1C (centres undefined) | 1.2 | x |
| O=C(OC(c1ccccc1)c1ccccc1)c1ccncc1 | -1.2 | x |
| CC12CN3CC(C)(CN(C1)C(=O)c1ccccc1C3=O)C2=O | -0.2 | 0.38 |
| CCCCCOC(=O)C1=C(C)NC(=O)NC1c1ccc(OC)c(Br)c1 (centres undefined) | x | 0.23 |
| NCCCc1nc2cc3sc(CCCN)nc3cc2s1 | 1.6 | -0.24 |
| COc1ccc(C)cc1S(=O)(=O)NCCO | x | -0.27 |

New compounds follow:
The line under a structure holds: AID504770 | CapD inh
CCOc1ccc(C(=O)CCC(=O)N2CCN(C(=O)C3CC3)CC2)cc1
 : -0.8 | x
CC(NC1CC(=O)N(C)C1=O)c1ccccc1 (centres undefined)
 : -1.1 | 0.59
CC1=NS(=O)(=O)c2cc(Cl)ccc2N1
 : -0.25 | 1.7
CC(=O)N(CCc1c(C)[nH]c2ccccc12)C(C(=O)Nc1c(C)cccc1C)c1ccc(Cl)cc1 (centres undefined)
 : -0.45 | 0.57
CSc1nsc(SC)c1C(=O)NC(=O)Nc1ccc(Cl)cc1
 : 2.1 | 0.19
CN(C)/C=N/c1cnc(C(=O)c2ccc(Cl)cc2)n1C
 : -0.65 | x
CN(C)C(=O)c1ccc(-n2cnc3ccccc3c2=O)cc1
 : -0.1 | -0.58
CC1=C(C(=O)Nc2ccc(Br)cn2)C(c2ccc(Cl)cc2)C2=C(CCCC2=O)N1 (centres undefined)
 : x | 38
CC(C)[C@H](N)c1nnc(SCC(=O)N(C)C)o1
 : -0.35 | x
CCOc1ccc(C(=O)c2nc3ccccc3s2)cc1
 : -0.1 | 5.5
O=C(O)Cc1nnn(C23CC4CC(CC(C4)C2)C3)n1
 : 0.8 | x
O=C(O)c1cccc(N2C(=O)/C(=C/c3ccc(Cl)cc3)C=C2c2ccccc2)c1
 : x | 0.81
O=C(COC(=O)C1CC(=O)N(CCc2ccccc2)C1)Nc1cccnc1Cl (centres undefined)
 : -0.05 | x
CCN(CC)C(=O)COc1ccc(C2C(C#N)=C(N)Oc3n[nH]c(COC)c32)cc1OC (centres undefined)
 : x | 0.005
CCOc1ccc(S(=O)(=O)n2ccc(C)n2)cc1
 : 2.3 | -0.81
COc1ccc2c(c1)C1CC(C)(NC(=O)C1c1nc3ccccc3s1)O2 (centres undefined)
 : x | 0.37
Cc1ccccc1NC(=O)CNc1ccccc1N1CCCCC1
 : 0.2 | x
Oc1ccc2nc(N3CCOCC3)sc2c1
 : -1 | -0.61
COC(=O)c1c(N)n(CCc2ccccc2)c2nc3ccccc3nc12
 : -0.35 | -0.63
COC(=O)CSc1cc(Cl)nc2ccc(C)cc12
 : x | 61
Cc1ccc(C2N(c3ccccc3)CCN2c2ccccc2)s1
 : 0.4 | -0.22
CCNc1nc(N2CCCC2)nc(N2CCC(Cc3ccccc3)CC2)n1
 : 0.7 | 0.01
O=C(CSc1nc2ccccc2c(=O)n1C1CCCCC1)NCc1ccco1
 : -0.5 | x
NC(=O)CSc1nc2ccccc2[nH]1
 : -1.5 | -0.56
Cn1nc(CC(=O)Nc2ncc(Br)s2)c2ccccc2c1=O
 : x | -1.4
Nc1n[nH]c(N)c1N=Nc1ccc(Cl)cc1
 : -0.45 | x
Cn1cnnc1SCC(=O)NC1CC1
 : 0 | 0.78
O=C(Nc1cccs1)N1CCN(C(=O)C2CCCO2)CC1 (centres undefined)
 : 2 | 0.15
CC(O)C(=O)NS(=O)(=O)c1ccccc1 (centres undefined)
 : 0.8 | x
CCOc1ccc2c(c1)-c1c(ssc1=S)C(C)(C)N2C(=O)CN1C(=O)c2ccccc2C1=O
 : x | -0.8
CC12CCC3C(CCC45CC(=O)CCC34C5)C1CCC2=O (centres undefined)
 : 0.3 | -0.59
COc1ccc2oc(C(=O)CCC(=O)O)c(N)c2c1
 : -0.7 | -0.61
O=C1Nc2ccccc2N/C1=C\c1ccc2ccccc2n1
 : 1.1 | 0.04
CC(C)N(c1ccccc1)c1ccc(NC(=O)c2ccccn2)cc1
 : -0.55 | x
O=C(/C=C/c1ccco1)Nc1ccc(Br)cc1
 : 2.6 | -1.9
Cn1cc(Br)c(-c2cccc(NC(=O)/C=C/C(=O)O)c2)n1
 : -1 | 1.4
COC(=O)CSC1=C(C#N)C(c2ccc(C(C)C)cc2)CC(=O)N1 (centres undefined)
 : -0.65 | 0.03
COc1ccc(C(=O)N/N=C/c2c[nH]c3cc(OCc4ccccc4)ccc23)cc1OC
 : x | 5.4
Cc1ccccc1S(=O)(=O)Cc1ccc(C(=O)n2ccnc2)o1
 : -0.1 | -0.58
CCc1cc2c(=O)c(-c3nc(C)cs3)c(CCC(=O)O)oc2cc1O
 : 0.75 | x
OC(CNCc1ccccn1)COc1ccc(OCC(O)CNCc2ccccn2)cc1 (centres undefined)
 : -0.4 | x
Cc1ccc2c(c1)-c1c(ssc1=Nc1ccc(S(N)(=O)=O)cc1)C(C)(C)N2
 : -0.35 | -0.7
CC(C)(C)c1ccc(-c2cc(N)c(C(N)=O)s2)cc1
 : x | 10
CCCCNc1ncnc2c1nc1n2CCCCC1
 : -0.8 | 0.35
CS/C(N)=N\N=C\c1ccccc1O
 : 1.4 | -2

Rewritten as labelled records: part of the list above
COc1ccc(C(=O)N/N=C/c2c[nH]c3cc(OCc4ccccc4)ccc23)cc1OC
  AID504770: x | CapD inh: 5.4

Cc1ccccc1S(=O)(=O)Cc1ccc(C(=O)n2ccnc2)o1
  AID504770: -0.1 | CapD inh: -0.58

CCc1cc2c(=O)c(-c3nc(C)cs3)c(CCC(=O)O)oc2cc1O
  AID504770: 0.75 | CapD inh: x

(list continues)
The line under a structure holds: AID504770 | CapD inh
Cc1c(N=Cc2ccccc2F)c(=O)n(-c2ccccc2)n1C
 : x | -0.035
O=C(OCC(F)(F)F)c1ccc(N2CCN(c3cccc(Cl)c3)CC2)nc1
 : x | 0.47
COc1cc2c(cc1OC)C1(CCCC1)CNC2C (centres undefined)
 : 0 | 0.3
c1ccc(-n2nnnc2N2CCCC2c2ccc3c(c2)OCCO3)cc1 (centres undefined)
 : -0.55 | x
Nc1ccc2c(c1)C13CCN4CC5=CCOC6CC(=O)N2C1C6C5CC43 (centres undefined)
 : x | -0.25
COC(=O)c1cccc2c1-c1ccccc1/C2=N\NC(N)=O
 : 0.95 | -1.6
